# NPYLR7 agonist = mosquito NPYLR7 agonism. HEK293T NPYLR7/Galpha15, GCaMP6s calcium fluorescence. activation, % at 10 µM. 270,000 tested, 0.15% active. AID 1259423; in the data active = activation above about 40%;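 also: 0% = vehicle and 100% = reference agonist at the receptor; some compounds past the cut are filed as inactive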
# NPYLR7 agonist max-min = second read-out of NPYLR7 agonist, no call of its own (marks repeat the call); activation, %; measured here: Max-Min RFU normalised activation; some inactives read as strong as hits;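 span of the calcium signal over five minutes; 0% = vehicle and 100% = native peptide agonist; compound fluorescence can raise it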
# The depositor's hits bear a star; & = joins results of further samples.
SMILES,NPYLR7 agonist,NPYLR7 agonist max-min
CCCC1(CNC(=O)c2c(C)oc3ncn(C)c(=O)c23)CCC1,-3,-4
COc1ccc(C(=O)O)cc1S(=O)(=O)N1CCCN(C(C)=O)CC1,22,19
CC1CCC(NC(=O)COc2ccccc2Br)CC1 (stereo unspecified),-6,-9
CCOC(=O)c1c(C)c(C(=O)CN(C(=O)C2C[C@H]2c2ccccc2)C(C)C)c(C)n1C (stereo partly specified),-9,-8
C=CCn1oc(=O)n(-c2ccc(OC)cc2)c1=O,7,8
Cn1nnnc1SCC1=C(C(=O)O)N2C(=O)[C@@H](NC(=O)[C@H](O)c3ccccc3)[C@H]2SC1,-3,-7
COc1cc2c(C#N)c(N3CCNCC3)nc(N)c2c(N)n1,2,9
OCC1O[C@H](O)C(Cl)C(O)C1O (stereo partly specified),-5,-18
NC(=O)c1cccc(CC2CCN(C(=O)Cc3ccc(F)c(F)c3F)C2)c1 (stereo unspecified),8,9
Cc1cccc(Nc2ccc(NCCNC(=O)/C=C/c3ccccc3)nn2)n1,10,6
CC(C)c1ccc(S(=O)(=O)Nc2ccccn2)cc1,0,-1
Cc1nnc(-c2ccccc2-c2ccc(S(C)(=O)=O)cc2)o1,21,17
CC(C)CN(Cc1c(-c2ccccc2)noc1N1CCSCC1)C(=O)NC(C)C,-9,6
COc1ccc(C2=N/C(=C\c3ccc(C(C)C)cc3)C(=O)O2)cc1[N+](=O)[O-],0,5
CCN(Cc1ccncc1)C(=O)CCNC(=O)c1ccc(F)cc1,12,2
Cc1cc2ccccc2n1CCC(=O)N1CCN2CCNC(=O)C2C1 (stereo unspecified),6,5
CCOc1ccc2c(c1)C(C)=CC(C)(C)N2,-1,-6
COc1ccccc1OCc1nc(C(=O)NCc2ccncc2)cs1,4,-2
Cn1cccc1C(=O)N1CCN(CC(OCc2ccc(C(F)(F)F)cc2)c2ccc(Cl)cc2)CC1 (stereo unspecified),-1,6
CN(C)S(=O)(=O)CCNC(=O)[C@@H](N)CC1CCCCC1,26,20
C=CCOc1c(Cl)cc(C2c3cc4c(cc3OC(=N)C2C#N)OCO4)cc1OC (stereo unspecified),7,5
CC1(C(=O)O)CCN1C(=O)Cc1ccsc1 (stereo unspecified),2,-1
Cc1ccc(-c2nc3c(C)cccn3c2NC(C)(C)C)cc1,-5,-2
Cc1ccc(S(=O)(=O)n2cc(/C=C\C(=O)NC(c3ccc(S(C)(=O)=O)cc3)c3cccc(N(C)C)c3)c3ccccc32)cc1 (stereo unspecified),-3,-10
O=C(Cn1cnc2ccccc21)N1CCCC(CO)(Cc2ccccc2F)C1 (stereo unspecified),20,4
Cc1c(OCC(N)=O)ccc2c3c(c(=O)oc12)CCCC3,0,-1
COc1ccc(-c2cnc3ncnn3c2NCCC2CCCN2C)cc1OC (stereo unspecified),1,-1
CN(C)c1c(Cl)cccc1NC(=O)NCc1ccoc1,8,7
CCN(CC)C(=O)COc1cc2sc(C)nc2c2sccc12,2,-3
CCc1nnsc1C(=O)N1CCN(CC(=O)NC2CC2)CC1,1,1
CC1(C(=O)Nc2ccc3c(c2)OCO3)CCN1C(=O)CCc1ccc(Cl)cc1Cl (stereo unspecified),-1,1
CC(C)Oc1ccc(S(=O)(=O)N2CCOCC2)cc1NC(=O)CCl,-7,-8
CC(c1cccc(-c2ccc(-c3nc(C4CC4)no3)cn2)c1)N1CCCC1 (stereo unspecified),-3,-6
COc1cc(-c2cccs2)cc2c1OCCN(CC(=O)N1CCOCC1)C2,-4,-7
COCc1cc(N2CCN(Cc3ccccc3)CC2)nc(SCc2ccc(C(=O)NCc3ccco3)cc2)n1,-10,6
Cc1cccnc1CN1CCN(C(=O)c2cnn3ccn(C)c23)CC1,2,1
C=CCOc1cccc(CNn2nnnc2N)c1,1,0
O=S(=O)(/C=C/c1ccccc1Cl)NCc1nc(C2CC2)no1,7,8
CNC(=S)N(CCc1ccc(OC)c(OC)c1)C1CC(=O)N(c2ccccc2)C1=O (stereo unspecified),4,2
Cc1ccccc1CNc1ncnc2c1ncn2C1OC(CO)C(O)C1O (stereo unspecified),78*,43*
COc1ccc2nc(N(CCCN3CCOCC3)C(=O)c3cc(C)on3)sc2c1,4,2
Cc1ccc(C)c(C(=O)Nc2ccc(NC(=O)C3CC3)cc2)c1,9,7
CCC(O)CN(Cc1ccc(C)s1)C(C)C (stereo unspecified),4,10
O=C(NCC(c1ccccc1)N1CCCCCC1)c1cn(Cc2c(F)cccc2F)nn1 (stereo unspecified),-2,-3
CCN(Cc1nc2cc(Cl)ccc2c(=O)[nH]1)Cc1cccc2cccnc12,4,4

# 6 entries drawn at random from those above:
SMILES,NPYLR7 agonist,NPYLR7 agonist max-min
O=S(=O)(/C=C/c1ccccc1Cl)NCc1nc(C2CC2)no1,7,8
CC1(C(=O)Nc2ccc3c(c2)OCO3)CCN1C(=O)CCc1ccc(Cl)cc1Cl (stereo unspecified),-1,1
COc1ccc2nc(N(CCCN3CCOCC3)C(=O)c3cc(C)on3)sc2c1,4,2
Cc1ccc(C)c(C(=O)Nc2ccc(NC(=O)C3CC3)cc2)c1,9,7
C=CCOc1cccc(CNn2nnnc2N)c1,1,0
Cc1cccnc1CN1CCN(C(=O)c2cnn3ccn(C)c23)CC1,2,1

# Arranged by molar mass (descending): part of the list above.
SMILES,NPYLR7 agonist,NPYLR7 agonist max-min
CCN(Cc1nc2cc(Cl)ccc2c(=O)[nH]1)Cc1cccc2cccnc12,4,4
CC(c1cccc(-c2ccc(-c3nc(C4CC4)no3)cn2)c1)N1CCCC1 (stereo unspecified),-3,-6
C=CCOc1cccc(CNn2nnnc2N)c1,1,0

# New compounds follow.
SMILES,NPYLR7 agonist,NPYLR7 agonist max-min
Cc1ccc(S(=O)(=O)NCCNc2nc(-c3ccccc3Cl)nc3ccccc23)cc1,5,10
CCOc1ccccc1C(=O)Nc1ccc(N2CCN(C(=O)Cc3cccs3)CC2)nc1,-7,-4
CC(C)(Oc1ccc2c(c1)CCC2)C(=O)NCC1(O)CCCNCC1 (stereo unspecified),17,11
CC(c1ccccc1)n1cnnc1Cn1cccn1 (stereo unspecified),-1,-1
CS(=O)(=O)c1cc(C(=O)Nc2cc(Cl)ccc2F)ccc1Cl,-2,-4
O=C(NC1CCN(C(=O)C2(c3ccccc3)CC2)CC1)C1CCC1,-23,-24
CSc1ncc(CNC(=O)C(C)n2ccnc2C(C)C)n1C (stereo unspecified),6,3
CC(=O)c1ccc(C(=O)N=c2sc3cc(Cl)cc(Cl)c3n2C)cc1,-2,-2
O=C(NCCc1csc(-c2cccnc2)n1)c1ccc(-n2cnnc2)cc1,1,-1
Cc1ccc(C(=O)N(Cc2ccco2)Cc2cc3c(cc2Cl)OCO3)cc1[N+](=O)[O-],-6,-10
CC1(C)CC(=O)C2Sc3ccc(Cl)cc3N=C2C1 (stereo unspecified),10,4
O=C(O)c1ccc(CSc2nc(-c3ccccc3)cc(N3CCN(c4ccccc4Cl)CC3)n2)cc1,8,8
COc1cc(C(=O)Nc2ccc3c(c2)CCC3)cc(OC)c1OC,3,1
COc1cccc(C(=O)N2CCN(c3nc(C)nc(C)c3Cc3ccc(F)cc3)CC2)c1,2,11
CCN(CC)C(=O)c1[nH]c2c(c1C)C(=O)CC(C)(C)C2,-1,0

# A different layout for some results above.
# Each structure is followed by: NPYLR7 agonist, NPYLR7 agonist max-min
CCOc1ccccc1C(=O)Nc1ccc(N2CCN(C(=O)Cc3cccs3)CC2)nc1
  -7, -4
CC(C)(Oc1ccc2c(c1)CCC2)C(=O)NCC1(O)CCCNCC1 (stereo unspecified)
  17, 11

# Next section.
SMILES,NPYLR7 agonist,NPYLR7 agonist max-min
O=C(c1cccc2cccnc12)N1CCn2cncc2C1,0,-8
CN1CCC(OCCCn2ccnc2-c2ccc(O)c(Cl)c2)CC1,5,5
CCN(CC(=O)NCc1ccc(F)cc1)S(=O)(=O)c1ccc(Cl)s1,-8,-8
O=C(Cn1ccnc1)N(c1ccccc1)C1CCS(=O)(=O)C1 (stereo unspecified),2,6
CCC(C)NC(=O)CN1CCN(c2cncc(OC)n2)CC1 (stereo unspecified),1,-1
O=C(O)C1=CCCOc2ccccc21,21,28
CCCCc1ccc(N2CCn3c2nc2c3c(=O)n(CCOCC)c(=O)n2C)cc1,-1,-3
Cc1ccc(-c2cnn3c(NCCCn4ccnc4)cc(C)nc23)cc1,7,8
CCOc1ccc(CC(=O)N2CCC(n3c(C)nc4ccc(C)cc43)CC2)cc1,6,9
O=C(NCc1c(-c2ccc(F)cc2)nc2n1CCS2)c1cncc(Br)c1,-1,-1
Cn1ccnc1SCc1nc(-c2ccccc2)no1,-1,5
COc1ccc(-c2nc(Cn3nc(C)cc3C)c(C)o2)c(F)c1,-1,1
CN1C[C@@H](NC(=O)OCC(C)(C)C)C[C@H]1C(=O)N[C@H]1CCCCNC1=O,1,-1
O=C(NCc1ccco1)c1ccc(CSc2nnc(-c3ccco3)n2-c2ccccc2F)cc1,5,12
O=C(c1ccc(Cl)s1)N(CCn1cccn1)c1nc2ccccc2s1,11,15
Cc1ccccc1C(N)=NOC(=O)c1cccs1,28,20
O=C(CN1C(=O)c2ccc([N+](=O)[O-])cc2C1=O)Nc1ccc(Cl)cc1[N+](=O)[O-],-6,-15
CCCc1nnnn1CC(=O)Nc1ccc(C)c(F)c1,-9,-9
CCOC(=O)C1CCCN(C(=O)Cc2csc(NC(=O)CN(C(=O)c3ccc(Cl)c(Cl)c3)C(C)C)n2)C1 (stereo unspecified),-8,-6
CC(C)=CCN1CCNC(=O)C1CC(=O)N(C)Cc1ncc[nH]1 (stereo unspecified),2,-1
CCC(C)C(NC(=O)c1ccccc1Br)C(=O)Nc1nnc(-c2cccc(OC)c2)s1 (stereo unspecified),13,9
COc1ccc(OC)c(-n2c(CNC(=O)c3ccco3)nnc2SCC(=O)Nc2ccc(F)cc2)c1,7,3
CCOc1ccccc1CN1CCN(Cc2csc(C(C)=O)c2)CC1CCO (stereo unspecified),3,1
CC(NC(=O)c1ccc([N+](=O)[O-])o1)C12CC3CC(CC(C3)C1)C2 (stereo unspecified),2,55
COCc1cc(=O)c2c(-c3cccc(C)c3)nn(-c3ccccc3)c2[nH]1,10,3
CCOC(=O)c1c(C)c(C(=O)NC2CCCCC2)c(C)n1CC,9,15
COCCCN(Cc1c(-c2cccc(C)c2)noc1N1CCOCC1)C(=O)c1ccccc1OC,8,10
CCc1nc2c(OCC(=O)C(C)(C)C)cccn2c1N(C)C(=O)c1cccs1,-16,-18
COc1ccc(CCn2nc(C(=O)O)c3c2CCN(C(=O)C2CCC2)C3)cc1,2,0
Cc1ccc(-n2c(SCc3ccc(C(=O)NCc4ccncc4)cc3)nnc2-c2ccc([N+](=O)[O-])cc2)cc1,-7,2
O=C(c1ccc2c(c1)OCO2)C1CCCN(C(=O)c2scc3c2OCCO3)C1 (stereo unspecified),4,1
COc1ccccc1-c1cc(C(=O)N2CCN(c3cccc(C(F)(F)F)c3)CC2)nc2cc(C(C)(C)C)nn12,-6&15,2&12
Cc1ccsc1-c1nc(CN(C)Cc2cc(-c3ccncc3)no2)c(C)o1,-5,-11
O=C(CCN1CCCO1)N1CCn2nc(C(=O)N3CCCC3)cc2C1,-2,-6
CCNC(=O)N(CCOC)Cc1c(-c2ccccc2)noc1N1CCc2ccccc2C1,11,8
O=P1(NCc2ccncc2)C=C(c2ccccc2)SC(c2ccccc2)=C1,2,36
CCOC(=O)NC(n1ccnc1)C(F)(F)C(F)(F)C(F)(F)C(F)F (stereo unspecified),-1,-12
Cc1cc(C)c(C2NC(=O)N(C)C3=C2C(=O)N(C2CC2)C3)cc1C (stereo unspecified),28,36
COc1cccc(C(CN2CCN(C(=O)C3CCC3)CC2)OCc2ccc(C#N)cc2)c1 (stereo unspecified),1,0
COc1ccccc1C(=O)N(CCC(C)C)Cc1c(-c2ccc(F)cc2)noc1N1CCN(C)CC1,0,0
CCNC(=O)[C@@H]1C[C@@H](N)CN1C(=O)CCN1CCCCO1,5,-4
O=C(OCC(=O)N1CCCCCC1)c1ccc(Br)o1,-1,-2
O=C(Nc1cc(C(F)(F)F)cc(C(F)(F)F)c1)N1CCSC1c1cccnc1 (stereo unspecified),2,12
CCCn1c(O)c(C=Nc2sc3c(c2C(=O)OCC)CCCC3)c(=O)[nH]c1=S,-5,-9
COc1ncccc1CN1CCN(c2cc(-c3nc(C)no3)ccn2)CC1,-5,-7

# Gathered by group: the entries above containing bromine.
SMILES,NPYLR7 agonist,NPYLR7 agonist max-min
CC1CCC(NC(=O)COc2ccccc2Br)CC1 (stereo unspecified),-6,-9
O=C(NCc1c(-c2ccc(F)cc2)nc2n1CCS2)c1cncc(Br)c1,-1,-1
CCC(C)C(NC(=O)c1ccccc1Br)C(=O)Nc1nnc(-c2cccc(OC)c2)s1 (stereo unspecified),13,9
O=C(OCC(=O)N1CCCCCC1)c1ccc(Br)o1,-1,-2

# Later entries:
SMILES,NPYLR7 agonist,NPYLR7 agonist max-min
O=C(CN1CCN(c2ccc([N+](=O)[O-])c3cnccc23)CC1)Nc1ccc(F)cc1F,2,4
O=C(COC(=O)c1ccc(S(=O)(=O)C(F)F)cc1)Nc1nc(-c2cc(F)ccc2F)cs1,-4,-8
COc1ccc(OC)c(C2CC(c3ccccc3Cl)=NN2C(=O)CN2CCC3(CC2)OCCO3)c1 (stereo unspecified),14,14
O=C(Nc1cccc2c1CCN(Cc1ccc3nsnc3c1)C2)c1ccncc1,11,3
Cc1ccc(CCC(=O)Nc2ccncc2)cc1Cl,2,2
O=C(NCCCn1ccnc1)c1cnn2c1NC(c1ccco1)CC2C(F)(F)F (stereo unspecified),12,10
COc1c(C)cc(C(O)c2ncc(-c3ccccc3C)[nH]2)cc1C (stereo unspecified),-2,-3
CN(C)c1nc2nonc2nc1Nc1cccc(Cl)c1,0,-2
CCC(C(=O)N1CCC2(CC1)NC(=O)c1cc(F)c(F)cc1N2)c1ccccc1 (stereo unspecified),3,20
NC(=O)c1ccc(CN2CCC3(CC2)SCC2C(=O)N(c4ccccc4)C(=O)N23)cc1 (stereo unspecified),7,9
Cc1n[nH]c(C)c1CCCNC(=O)CC12CC3CC(CC(C3)C1)C2,7,4
COc1cc(CNC(=O)c2nn(-c3ccc(F)cc3)c3c2CCC3)cc(OC)c1OC,-8,-5
N#CCCN(Cc1ccco1)CC(O)COC1CCCc2ccccc21 (stereo unspecified),-1,6

# Screening data from PubChem BioAssay.

# These rows are one share of the data; rates above refer to the full screens.
